Menin-MLL FL inh: displaces fluorescein MLL peptide from human menin | Fluorescence polarization, fluorescein-MLL peptide displacement from menin | FP activity change, % at 61.4 µM | 290,000 tested, under 10 active | AID 1766; inconclusive = falling polarisation curve, or a change in total fluorescence; inactive = total fluorescence flat and polarisation flat or rising; no compound was filed as active; the % refers to the polarisation; negative = inhibition;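 note: % of control where 0% means no effect; inhibitors lower the polarisation; unlabelled MLL peptide was the positive control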
Sfp inh: blocks B. subtilis Sfp PPTase activity; Q9F4F7; hit rate 3.5% among 310,000; Potency, µM, for the others: max response, negative = inhibition, hits mostly inhibitors; Biochemical Sfp PPTase activity, qHTS; active = well fitted inhibition curve with a large enough effect; inconclusive = small, poorly fitted or top-dose-only effect, or another doubt; inactive = no such curve, though single readings can be large or run the other way;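 note: the enzyme is Sfp with the accession as filed and its product quenches rhodamine fluorescence; potency is the fitted concentration of half-maximal effect; 0% = enzyme reaction without inhibitor and -100% = no enzyme wells; top concentration of the series not given in the record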
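Step 1, compound plus 15 nM Sfp-PPTase, 15 min, room temperature. Step 2, add rhodamine-CoA (5 uM) and BHQ-2-YbbR (12.5 uM). Step 3, read 525/598 nm fluorescence at 0 and 30 min.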
TRPV1 PAM: enhances activation of the human vanilloid receptor TRPV1. Q8NER1. TRPV1-expressing cells, Fluo-8 calcium influx, capsaicin EC20 potentiation; host cell line not named in the record; control for the full effect not named in the record. potentiation, % at 8.33 µM. hit rate 0.02% among 320,000; active means potentiation above 80%; inconclusive means 30% to 80%; inactive means below 30%; note: 0% is about no effect
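TRPV1-expressing cells were cultured overnight at 35.5C and loaded with Fluo-8 calcium dye for 40 to 90 min at room temperature. After a 10 s baseline, compound was added and calcium influx was read kinetically for 3 min (ex 480/em 520 nm).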
ClpP mod: qHTS Assay for Activators of ClpP; ATP-dependent Clp protease proteolytic subunit (Bacillus subtilis (strain 168)), P80244; purified B. subtilis ClpP, FRET peptide cleavage, 20 min; Potency, µM (highest dose often 57.5 µM), for inactives: at the top dose activity change, negative = active; hit rate 1.9% among 340,000; AID 651965, 2013; active = well fitted falling curve with a large enough effect; inconclusive = small, poorly fitted or top-dose-only effect; inactive = no such curve, though single readings can be large or run the other way; note: potency is the fitted concentration of half-maximal effect; the source files actives as falling curves though it sought activators and does not explain the sign; nearly all actives have a fitted effect of over 65% in size; many hits overshoot -100%
Target sequence (P80244 whole entry, looked up): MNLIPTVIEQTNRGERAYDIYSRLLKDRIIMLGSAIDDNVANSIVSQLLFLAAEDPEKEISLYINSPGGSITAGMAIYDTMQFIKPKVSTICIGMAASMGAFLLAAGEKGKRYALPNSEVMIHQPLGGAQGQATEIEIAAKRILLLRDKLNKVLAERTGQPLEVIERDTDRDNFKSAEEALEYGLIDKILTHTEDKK
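ClpP 10 microg/mL final, pH 8 Tris/KCl buffer with BSA, glycerol, Tween-20; compound pinned in; FRET-FV substrate; RT 20 min; Ex320/Em430; ΔFRET vs ADEP 5.8 microM, DMSO, no enzyme.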
gsp agonist: agonists of gsp mutant (McCune-Albright syndrome); gsp mutant cells, cAMP HTRF, 30 min; control for the full effect not named in the record; Potency, µM (doses to about 76.9 µM), for inactives: at the highest dose activation (cAMP increase), actives largely listed as activators; hit rate 0.13% among 340,000; active = well fitted activation curve with a large enough effect; inconclusive = small, poorly fitted or top-dose-only effect, or another doubt; inactive = no such curve, though single readings can be large or run the other way; cell line not stated here;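 note: phosphodiesterase inhibitor Ro 20-1724 added with compounds to block cAMP breakdown; potency is the fitted concentration of half-maximal effect; nearly all actives have a fitted effect of over 60% in size; about a fifth of the inactives were tested at one dose only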
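Cells in DMEM/10% FBS with G418 were pretreated with compounds in DMSO plus […] (300 uM stock) for 30 min at 37C. cAMP was measured by HTRF (cAMP-d2 plus anti-cAMP antibody-K) after 30 min at room temperature.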
gsp antagonist: antagonizes gsp, the McCune-Albright syndrome mutation | gsp-mutant cells, cAMP HTRF, 30 min; control for the full effect not named in the record | Potency, µM (doses to about 76.9 µM), for inactives: at the highest dose activity change, negative = inhibition, hits mostly inhibitors | hit rate 0.4% among 340,000; active = falling curve of any shape with a large fitted effect; inconclusive = falling curve, mostly with a smaller effect; inactive = flat or rising curve; cell line not stated here;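 note: intracellular cAMP measured with PDE inhibitor Ro 20-1724 present during compound exposure; potency is the fitted concentration of half-maximal effect; % is set by controls: 0 for no effect and ±100 for the full control effect; nearly all actives have a fitted effect of over 65% in size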
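Measurement of cellular cAMP by homogeneous time-resolved fluorescence following a 30 min compound exposure at 37C. The PDE inhibitor […] was present throughout; the assay buffer was DPBS with 0.05% BSA and 0.005% Tween 20.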
TRPML1 inh: human mucolipin-1 channel inhibition; Q9GZU1; hit rate 0.02% among 390,000; AID 624415; activity change, negative = inhibition, % (concentration not given with the values); TRPML1-inducible cells, Ca2+ dye fluorescence, FDSS; hits give low values; inhibition of EC80 agonist-evoked calcium signal; in the data active means activity change below about -50%; inconclusive means about -30% to -50%; inactive means above about -30%;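 note: stimulus is agonist 54-4 at its EC80 concentration; % is set by controls: 0 for no effect and ±100 for the full control effect; compound concentration not given in the record; the text of the record puts the active cut at -80%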
Target sequence (Q9GZU1 whole entry, looked up): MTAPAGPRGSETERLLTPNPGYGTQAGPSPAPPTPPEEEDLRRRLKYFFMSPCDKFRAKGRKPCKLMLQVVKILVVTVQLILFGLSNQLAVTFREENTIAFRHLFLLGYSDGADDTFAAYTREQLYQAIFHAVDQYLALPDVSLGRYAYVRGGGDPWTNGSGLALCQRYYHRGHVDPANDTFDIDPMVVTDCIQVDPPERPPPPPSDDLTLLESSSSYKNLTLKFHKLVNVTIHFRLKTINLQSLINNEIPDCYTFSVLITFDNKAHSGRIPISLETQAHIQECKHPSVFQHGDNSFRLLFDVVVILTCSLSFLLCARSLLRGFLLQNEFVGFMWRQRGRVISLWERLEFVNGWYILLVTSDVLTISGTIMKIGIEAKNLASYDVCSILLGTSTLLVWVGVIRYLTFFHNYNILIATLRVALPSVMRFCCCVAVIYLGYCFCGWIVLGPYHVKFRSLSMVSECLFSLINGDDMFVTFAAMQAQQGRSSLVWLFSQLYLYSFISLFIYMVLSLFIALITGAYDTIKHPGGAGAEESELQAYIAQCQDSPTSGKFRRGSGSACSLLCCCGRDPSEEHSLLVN
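TRPML1-DL cells, Tet-induced overnight (~16 h, 37 °C) at 1,500 cells/well, were loaded with Ca8 no-wash dye plus quencher for 45-90 min at room temperature. Compounds were pinned during FDSS kinetic reading; agonist 54-4 at EC80 (4 uM final) then added.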
An asterisk follows results filed as active; ? = inconclusive; . = not tested or not shown; & = joins results of further samples; [ ] = dose if it differs, or a comment.

SMILES,Menin-MLL FL inh,Sfp inh,TRPV1 PAM,ClpP mod,gsp agonist,gsp antagonist,TRPML1 inh
Cc1cccc(C)c1-c1ccc(CN2C(CC(C)C)C(=O)N(Cc3cn(CCO)nn3)CCS2(=O)=O)cc1 (configuration not stated),.,.,.,-0.8%,.,-1%,16
CC(=O)Oc1c(Br)cc(N(C(C)=O)S(=O)(=O)c2ccccc2)c2ccccc12,2.8,35µM*,-10,2.9%,-41%[inhibitor],-16%,-21
COC(=O)c1cc(S(=O)(=O)NCC2CCN(Cc3cccc(F)c3)CC2)cn1C,-3.1,15%,-10,0.5%&1.4%,?,3%,25&6
CCOC(=O)C(C)Oc1cc(Cl)c(C=O)cc1OC (configuration not stated),-1.2,2%,-45,.,-47%[inhibitor],-16%,-23
CCCCS(=O)(=O)NC1=NCN(CC)CN1,2.1,5%,-8,-1.1%,-4%,0%,0
Cn1c(NC(=O)C[n+]2cc(-c3ccc(Cl)c(Cl)c3)n3c2CCC3)cc(=O)n(C)c1=O,1.8,10%,21,-1.1%,?,12%,-5
Cc1ccc(NC(=O)C2CC(=O)N(Cc3ccco3)C2)cc1 (configuration not stated),6.6,6%,1,0.0%,1%[15.4 µM],5%,-10
CC(=O)Nc1sc2c(c1C(c1cccc(Cl)c1)N1CCN(CCO)CC1)CCCC2 (configuration not stated),-1.9,-2%,-3,-1.7%,11%,4%,3
Cc1ccccc1C(=O)c1cccn1CC(=O)NCCCN1CCc2ccccc2C1,0.3,?,-14,.,11%[15.4 µM],.,-11
O=C(CCc1ccccc1O)NC1CCCc2ccccc21 (configuration not stated),5.3,19%,4,.,15%[15.4 µM],9%,3
NC(N)=N/N=C/c1ccc(OCc2ccc(Cl)cc2Cl)cc1,2.2,32µM*,19,-1.9%,13%,9%,1
CCc1ccc(N(C(=O)c2ccco2)C(C(=O)NC2CCCC2)c2cccnc2)cc1 (configuration not stated),-0.7,3%,-12,-9.5%,-3%[15.4 µM],-10%,-9
O=C1c2ccccc2C(=O)N1CC1CO1 (configuration not stated),.,.,.,.,?,15%,4
COc1cccc(NC(=O)CCC2CCN(C(=O)c3sccc3C)CC2)c1,.,3%,-12,1.5%,-70%[inhibitor],2%,8
Cn1nc(-c2ccc(C(=O)NCC3CCCO3)cc2)c2ccccc2c1=O (configuration not stated),0.3,-7%,1,-0.1%,35%,-2%,10
C=CC[C@@H](CC(=O)N[C@@H](CO)Cc1ccccc1)C(=O)N[C@H](COC(=O)[C@@H](CC=C)Cc1ccc(F)cc1)Cc1c[nH]c2ccccc12,.,.,.,1.0%,-15%,-4%,7
O=c1n(CC2CO2)c(=O)n(CC2CO2)c(=O)n1CC1CO1 (configuration not stated),1.4,22%,.,-23%&-0.4%,11%,11%,-7
O=C(CCc1nc2sc3c(c2c(=O)[nH]1)CCCC3)NCCOc1ccccc1,.,.,19,16%,-11%[15.4 µM],-4%,6
NC(=S)N1N=C(c2ccccc2)CC1=O,.,.,.,3.1%,4%,4%,11
CCCn1c(C)cc(-c2csc(NC(=O)CCc3nc4ccccc4c(=O)[nH]3)n2)c1C,.,.,9,-1.3%,0%,-5%,-5
CC(C)(C)Cc1nnc(NS(=O)(=O)c2ccc(F)cc2)s1,2.6,24%,0,0.4%,-2%,?,4
CCNC(=S)N1CCN(S(=O)(=O)c2cccc(C(F)(F)F)c2)CC1,2.6,4%,-16,1.3%,8%,12%,10
Cc1ccc(S(=O)(=O)N2CCCCC2)cc1NC(=O)c1ccco1,.,.,.,0.2%,-71%[inhibitor],.,25
C=CCN1C(=O)/C(=C2\SC(N3CCOCC3)=NC2=O)c2cc(Br)ccc21,-2.7,-6%,-18,-4.3%,20%,3%,-4
O=C(NCc1ccccc1Cl)c1ccc(Br)o1,-2.5,13%,1,1.1%,10%,-1%,15
COc1ccc(CCNC(=O)COC(=O)c2ccc[nH]c2=O)cc1,-0.4,0%,20,-2.6%,-33%[inhibitor],5%,-5
N#C/C(=C\c1cn[nH]c1-c1ccccc1Br)C(=O)O,-2.6,8%,-7,.,6%[15.4 µM],3%,8
COc1cc2[nH]c(=S)n(Cc3ccc(F)cc3)c(=O)c2cc1OC,-1.8,-12%,-3,-0.4%,-7%[15.4 µM],4%,15
Cc1cc(=O)oc2cc(Oc3ncccn3)ccc12,2.3,23%,-4,32µM*,-4%,11%,1
O=C(c1ccco1)N(Cc1ccc([N+](=O)[O-])cc1)c1ccc(Br)cc1,0.5,-4%,-18,-22%,-8%,-13%,19
COC(=O)NNC(=O)CCCOc1ccc(Cl)cc1Cl,2.0,11%,-12,?,-2%,1%,-9
Cc1cccc(CN2CCN(C(c3ccccc3)c3ccc(Cl)cc3)CC2)c1 (configuration not stated),-3.0&-2.9,-2%&-18%,4,-1.6%,.,-14%,-5
Cc1ccc(CNC(=O)CSc2nc(N3CCCCC3)nc(N3CCCCC3)n2)cc1,-0.2,-6%,-3,1.2%,-13%,-6%,20
CCCc1nnc(NC(=O)CCC(=O)NCCc2ccc(OC)c(OC)c2)s1,7.0,5%,15,1.3%,-15%,11%,15
CN(c1ccccc1)c1ncccn1,.,.,.,2.5%,?,8%,-7
COc1cccc(NC(=S)N(CCN(C)C)C(C)c2ccncc2)c1 (configuration not stated),-3.8,20%,13,0.7%,-35%[inhibitor],-1%,-3
CCOC(=O)C1(Cc2ccccc2)CCCN(Cc2ccc(OCC)c(CO)c2)C1 (configuration not stated),9.5,6%,-21,.,6%,6%,19
COc1cc(CNCc2cccs2)ccc1OCc1ccccc1,-1.6,23%,-10,?,2%,1%,20
COc1ccc(Nc2nc(CC(C)=O)ns2)cc1,1.2,14%,3,-0.8%,-49%[inhibitor],-2%,-2
O=C(O)c1ccccc1NC(=O)C1CCN(S(=O)(=O)c2ccc3c(c2)OCCO3)CC1,.,.,.,-14%,-32%,.,-8
CCS(=O)(=O)N1Cc2ccccc2CC1C(=O)NCCc1ccccc1 (configuration not stated),-2.8,2%,-6,.,-15%,-6%,10
O=C(CCCn1c(=O)[nH]c2ccsc2c1=O)N1CCCCC1,-1.1,16%,4,-0.5%,19%,15%,-14
Cc1sc(NC(=O)CN(Cc2ccccc2)C(=O)C2CC2)c(C(N)=O)c1C,-7.0,15%,0,-0.9%,7%,-12%,16
O=C(CSCc1ccccc1Cl)NN=C1CCCCCC1,-0.3,6%,15,-0.1%,-1%,-2%,-6
Cc1ccc(N(CC(=O)NCc2ccco2)C(=O)CCC(=O)Nc2nccs2)c(C)c1,4.2,18%,3,.,2%,7%,6
CCCCCCc1ccc(N2C[C@H](C)[C@@H](CC(=O)NCc3ccccc3)C2=O)cc1,5.4,9%,14,1.9%,12%,-16%,-10
COc1ccc(-n2c(=O)cc(N3CCN(c4ccccc4OC)CC3)[nH]c2=O)cc1,1.0,-17%,19,-0.3%,-37%,-5%,9
COc1cccc(N/C=C/c2onc(C)c2[N+](=O)[O-])c1,13,5%,4,2.5%,18%,-9%,7
CC(NC(=O)NC1CCCCC1)C(c1cccs1)N1CCN(c2ccccc2)CC1 (configuration not stated),-5.6,12%,-7,-0.4%,-22%,-6%,5
Cc1ccc(S(=O)(=O)N2CCC(C(=O)OC(C)C(=O)NC3CCCCC3C)CC2)cc1 (configuration not stated),.,.,-1,-0.3%,-28%,-2%,-11
Cc1cc(C)n2nc(-c3cccnc3)nc2n1,3.4,20%,-1,-0.7%,11%,3%,-4
CCOC(=O)C1CCN(C(=O)c2cccc(NC3=NC4CS(=O)(=O)CC4S3)c2)CC1 (configuration not stated),3.3,7%,-12,0.9%,-18%,7%,5
CC(C)(C)c1cc(NCc2ccccn2)n2ncc(-c3ccc(Cl)cc3)c2n1,2.3,12%,-3,4.0%,-16%,3%,1
O=C(Nc1cccc(S(=O)(=O)N2CCCCCC2)c1)c1ccc2ccccc2n1,-0.8,-2%,0,-2.4%,5%[15.4 µM],-4%,34
O=C(CSc1nc(-c2ccccc2)cc(=O)[nH]1)N1CCc2ccccc21,2.4,10%,15,-3.0%,18%,-13%,-8
O=[N+]([O-])c1ccc(NCCCNS(=O)(=O)c2ccc(Cl)cc2)c(Cl)c1,-1.7,-15%,-9,0.9%,-14%,-19%,65
CC(=O)c1ccc(-n2c(-c3cc(-c4ccsc4)n[nH]3)n[nH]c2=S)cc1,0.3,-36%,11,.,-68%[inhibitor],-18%,-5
O=S(=O)(c1ccc2c(c1)OCCO2)N1CCC(O)(c2ccc(Cl)cc2)CC1,7.2,18%,24,0.4%,-11%,?,-3
O=C(N/N=C/c1cccc([N+](=O)[O-])c1)c1cc(-c2ccc3c(c2)OCO3)n[nH]1,-2.4,-27%,8,.,2%[15.4 µM],-2%,-6
Oc1[nH]c2ccc(Br)cc2c1N=NC(=S)NCC1CCCO1 (configuration not stated),-1.3,-11%,-4,.,-23%[15.4 µM],-26%,3

(more compounds)
SMILES,Menin-MLL FL inh,Sfp inh,TRPV1 PAM,ClpP mod,gsp agonist,gsp antagonist,TRPML1 inh
O=C(COC(=O)c1cccc(S(=O)(=O)N2CCc3ccccc32)c1)Nc1ccc(Cl)cn1,13,23%,-4,-3.4%,4%,-7%,7
Cc1cccc(N2CCN(C(=O)C3CCN(S(=O)(=O)c4c(C)noc4C)CC3)CC2)c1C,.,0%,4,-2.2%&-1.4%,-7%,-20%,-22&2
c1ccc(NC2=NCCN2CCCC2CCCC2)cc1,.,.,27,-2.0%,.,9%,16
COc1cc(CC(=O)N/N=C/c2ccccc2)c([N+](=O)[O-])cc1OC,0.8,-12%,-7,.,.,.,.
Cc1ccc(S(=O)(=O)N2C[C@H]3[C@H]4C(=O)N(c5ccccc5)C(=O)[C@H]4C[C@H](OC(=O)NCC4CCCCC4)[C@@]3(O)C2)cc1,.,.,.,-1.8%,1%,.,15
CCC(c1nnc(SCCNCCO)n1CCN1CCOCC1)N(C)C (configuration not stated),-0.1,?,1,0.8%,-25%,16%,-2

Bioassay records from PubChem BioAssay.

The order is random; 4.9% or so of the library scored in one or more.
